nsP2pro inh: CHIKV nsP2 protease inhibition, primary qHTS; Potency, µM (doses to about 24.9 µM), without a hit: at the top dose activity change, negative = inhibition, most hits filed as inhibitors; FRET peptide cleavage, nsP2pro, fluorescence 1 h; 31,000 compounds, 1.1% hits; active means well fitted inhibition curve with a large enough effect; inconclusive means small, poorly fitted or top-dose-only effect; inactive means no such curve, though single readings can be large or run the other way; note: nearly all actives have a fitted effect of over 60% in size; a reference inhibitor and vehicle were the controls
Starred values were filed as active, the others as inactive; i = inactive; ? = inconclusive; & = joins results of further samples; [ ] = dose if it differs, or a comment. % is set by controls: 0 for no effect and ±100 for the full control effect; potency is the fitted concentration of half-maximal effect. Some of the compounds tested. The share of hits here may be higher or lower than overall.

Molecule,nsP2pro inh
Cc1oc2c(c1C(=O)Nc1cccc(Br)c1)C1=NCCN1C=N2,-27.9%
O[C@@H]1C[C@@H](c2nc(-c3ccccn3)no2)N(Cc2cc3ccccc3o2)C1,i
CN(C)C[C@H]1C[C@@H](CO)CN(C(=O)c2csc(Cc3ccccc3)n2)C1,1.5%
O=C1CC(c2c(F)cccc2Cl)c2c(ccc3ccccc23)N1 (centres undefined),-15.1%
CC(=O)N1CCc2cc(Br)cc(S(=O)(=O)N3CCC(C)CC3)c21,-20.7%
COc1ccc(C(=O)CC2(O)C(=O)Nc3c(Cl)ccc(Cl)c32)cc1 (centres undefined),-14.5%
CCCc1nc(CN(CC)C(=O)c2ccc(NC(=O)C3CCC3)cc2)no1,i
COc1ccc(-c2c(C)c3ccc(O)c(CN4CCOCC4)c3oc2=O)cc1OC,-15.2%
NCc1ccc(S(N)(=O)=O)cc1,-9.7%&14.3%
COCCN1C(=O)[C@H]2CN(Cc3ccc(C)s3)C[C@H]2C1=O,-2.3%
CN(CC(=O)N1CCC(CCOc2ccc(F)cc2)C1)S(=O)(=O)c1ccc2c(c1)oc(=O)n2C (centres undefined),-11.1%
CN(Cc1ccccc1)c1ccc(-c2nc(-c3cccnc3)no2)cc1[N+](=O)[O-],-26.7%
COc1cccc(CNC(=O)N[C@@H]2CN(c3ncccn3)C[C@H]2CN(C)C)c1,-3.3%
O=C(c1cc(F)ccc1F)N1CCC(Cc2noc(C3CC3)n2)C1 (centres undefined),2.3%
COc1ccc(-c2c(C#N)c(SCC(=O)Nc3ccc(C)c(C)c3)nc(C)c2C(=O)Nc2ccc(Cl)cc2)cc1,-6.0%
CC(=O)N1CCCc2cc(S(=O)(=O)N3CCC(C(=O)N(C)C4CCCCC4)CC3)ccc21,-14.6%
Cc1nnc2ccc(N3CCC(NC(=O)C(C)C)CC3)nn12,-4.3%[39.2 µM]
O=C(Nc1ccccc1)N1CCCC(C(=O)N2CCC(N3CCCC3=O)CC2)C1 (centres undefined),i
CN(C)C(=O)c1ccc(OC2CCN(C(=O)c3ccc(C(F)(F)F)cc3)CC2)nc1,i
Cc1cn(S(=O)(=O)c2ccc(F)c(Cl)c2)cn1,?
CCN(Cc1ccccc1)C(=O)c1cnn(-c2ccc(F)cc2)c1-n1cccc1,-16.1%
COc1ccc(CC2c3cc(OC)c(OC)cc3CC[N+]2(C)CCC(=O)OCCCCCOC(=O)CC[N+]2(C)CCc3cc(OC)c(OC)cc3C2Cc2ccc(OC)c(OC)c2)cc1OC (centres undefined),-26.7%
CCc1cccc(NC(=O)CCc2c(C)nc3c(-c4ccccc4)c(C)nn3c2C)c1,-9.5%
COc1ccc(C2Nc3ccccc3C(=O)N2Cc2cccc(-c3ccccc3)c2)cc1COc1ccc(NC(C)=O)cc1 (centres undefined),?
C=CCc1cc(-c2c(-c3ccccc3)ncn2CCOCCO)cc(OC)c1O,i

Reprinted from the part before: 2 entries, followed by the next part.
Molecule,nsP2pro inh
COc1ccc(C2Nc3ccccc3C(=O)N2Cc2cccc(-c3ccccc3)c2)cc1COc1ccc(NC(C)=O)cc1 (centres undefined),?
C=CCc1cc(-c2c(-c3ccccc3)ncn2CCOCCO)cc(OC)c1O,i
Cc1ccc(Cn2c(SCC(=O)C(C)(C)C)nc3ccsc3c2=O)cc1,-16.7%
C[C@]12CC[C@H]3[C@@H](CCC4=CC(=O)CC[C@@H]43)[C@@H]1CC[C@@H]2OC(=O)CCC1CCCCC1,-5.5%
Cc1nnc(-c2cc(-c3ccc(CO)cc3)ccn2)n1Cc1ccccc1,i
O=C(O)c1ccc(-c2ccc3ncnc(NCCc4cnc[nH]4)c3c2)o1,i
CN(CC(=O)N1CCC2(CCNCC2)CC1)Cc1cccnc1,2.0%
CCOC(=O)c1c(-c2ccccc2)no[n+]1[O-],?
COc1ccccc1CC(C(=O)O)N(C)C(=O)c1ccccc1 (centres undefined),18.5%
Cc1cc(C(=O)N2CCn3nc(C(C)O)cc3C2)c2ccc(F)cc2n1 (centres undefined),i
COc1ccccc1CNC(=O)CSc1nc(=O)[nH]c2c1CCCC2,-20.3%
Cc1cc(Cl)cc(Cl)c1CNCC1(O)CCCNC1 (centres undefined),-18.5%
Cc1cc(F)c(C(=O)Nc2cccc(-c3nncn3C(C)C)n2)cc1-n1cnc(C2CC2)c1,26.2%[10 µM]
COc1cc(C(=O)OC[C@H]2O[C@H](O[C@@]3(CO)O[C@@H](CO)[C@H](O)[C@H]3O)[C@H](O)[C@@H](O)[C@@H]2O)ccc1O,-17.7%[10 µM]
Cc1ccc(C(=O)Nc2ccccc2C(=O)OCc2cc(=O)n3nc(C4CC4)sc3n2)cc1,?
COC1C(OC(=O)/C=C/C=C/C=C/C=C/C(=O)O)CCC2(CO2)C1C1(C)OC1CC=C(C)C (centres undefined),-1.1%[10 µM]
COC[C@@H]1CN(C(=O)CCc2c(C)nn(C)c2C)C[C@H]1c1ccccn1,-3.4%
O=C(NCc1cccc(Br)c1)c1cccn1-c1nnc(N2CCCCC2)s1,-18.8%
C[C@]12CC[C@H]3[C@@H](CCC4=C/C(=N/OCC(=O)O)CC[C@@]43C)[C@@H]1CC[C@@H]2O,1.6%
NC(=O)[C@@H](Cc1c[nH]c2ccccc12)NC(=O)[C@@H]1C[C@@H](NS(=O)(=O)c2cccs2)CCN1C(=O)[C@@H](O)[C@H](O)C(=O)O,-2.4%
COc1ccc(NC(=O)CCCN2C(=O)COc3ccc(C)cc32)cc1OC,-16.0%
CC#CC(=O)N1CCCC(C(=O)Nc2ccc(-c3cccc(OC)c3)cc2)C1 (centres undefined),i
COc1ccc(OC)c(CCNC(=O)c2nn(C)c3c2CSc2ccccc2-3)c1,-10.4%
C=C1[C@@H](C2=CC(=O)OC2)CC[C@@]2(O)[C@@H]1CC1[C@H]2CC[C@@H]2C[C@@H](O[C@H]3O[C@@H](C)[C@@H](O[C@@H]4O[C@H](CO[C@@H]5O[C@H](CO)[C@@H](O)[C@H](O)[C@H]5O)[C@@H](O)[C@H](O)[C@H]4O)[C@H](OC)[C@H]3O)CC[C@]12C (some centres undefined),15.5%[5.1 µM]
O=C1[C@H](CC[C@H](O)c2ccc(F)cc2)[C@@H](c2ccc(O)cc2)N1c1ccc(F)cc1,23.3%&3.9%
Cn1c(CN2CCC(O)CC2)nnc1C1CCCN(Cc2ccccn2)C1 (centres undefined),i
C=CCS(=O)(=O)N1CCC2(CCCN(CCCc3ccccc3)C2=O)C1 (centres undefined),-9.9%

New compounds follow:
Molecule,nsP2pro inh
Cc1csc(CNc2ncnc3ccc(-c4ccc5c(c4)OCO5)cc23)c1,-1.7%
COc1ccc(C2COc3cc(O)ccc3C2)c(O)c1OC (centres undefined),2.8%
CC(=O)O[C@]1(C(C)=O)CC[C@H]2[C@@H]3C=C(C)C4=CC(=O)CC[C@@H]4[C@H]3CC[C@@]21C,-2.2%
Cn1c(=O)c(=O)n(C)c2cc(C(=O)NCc3ccccc3Cl)ccc21,-32.7%
COc1ccc(OC)c(NC(=O)Cn2cc(C(=O)c3cccs3)c3ccccc32)c1,-17.5%
CC(C)[C@@H](C)/C=C/[C@@H](C)[C@H]1CC[C@H]2/C(=C/C=C3\C[C@@H](O)CC[C@@H]3C)CCC[C@]12C,-11.3%
N#Cc1ccccc1S(=O)(=O)N1CCCC(c2nc3c(nnn3Cc3cccc(Cl)c3)c(=O)[nH]2)C1 (centres undefined),-6.7%
CC1=CC2C(CC1OC1OC(CO)C(O)C(O)C1O)C(C)CC(=O)C2C(C)C (centres undefined),53.8%
CCCC(=O)N1c2ccccc2-c2nnc(SC)nc2OC1c1sccc1C (centres undefined),-10.9%
COc1cccc(Cn2c(CNS(=O)(=O)c3ccc(Cl)s3)nc3cccnc32)c1,6.0%
Cc1nc(CCN(C)c2ncnc3ccc(-c4ccc5c(c4)OCO5)cc23)cs1,0.6%
CC(C(=O)O)c1cccc(Oc2ccccc2)c1 (centres undefined),6.3%
OCCNC1CCCc2c1[nH]c1ccc(-c3ccccc3)cc21 (centres undefined),27.4%
COc1ccc(-n2ccn(Cc3ccccc3C)c(=O)c2=O)cc1,-19.7%
Cc1cc(C)c(NC(=O)CN(CC(=O)O)CC(=O)O)c(C)c1Br,30.0%[activator]
Cc1ccccc1C(=O)NCc1cccnc1Oc1cccc(C(F)(F)F)c1,-1.9%
O=C(N1CCCCC1)C1(c2ccc(Cl)cc2)CCOCC1,-0.7%
CNc1oc(-c2ccccc2-c2ccccc2)nc1C#N,0.7%
Cn1nccc1C(=O)N1CCC2(CCCN(Cc3cccc(F)c3F)C2=O)C1 (centres undefined),i
O=C(NCc1ccc2c(c1)OCO2)c1nc(-c2ccc(F)cc2)c2cnccn12,i
CCOC(=O)c1[nH]c2c(c1C)CCC(c1ccco1)C2 (centres undefined),-1.6%
O=C(NCc1ccc(Cl)c(Cl)c1)Nc1nnc(-c2ccncc2)s1,1.7%
c1cc(-c2noc([C@@H]3CCCN3Cc3ncc[nH]3)n2)cc(N2CCCC2)n1,i
CCc1ccc(CNC(=O)c2cccc(-n3cnc4cccnc43)c2C)cc1,-6.7%
COc1ccc(NC(=O)N2CCC3(CC2)SCC(=O)N3c2ccc(F)cc2)cc1,-1.3%

Continuation:
Molecule,nsP2pro inh
Cc1ccc(NS(=O)(=O)c2cc3c(cc2Cl)NC(=O)CO3)cc1Cl,-3.7%
CC(C)n1cc(CN2C[C@@H]3C(=O)N(Cc4ccc5c(c4)OCO5)C(=O)[C@@H]3C2)c2ccccc21,i
Cc1c(CNC(C)CCc2ccccc2)c(C(=O)O)c(C)n1Cc1ccc(F)cc1 (centres undefined),-12.4%
CCOC(=O)c1ccc(CSc2nnc3cc(C)c4ccccc4n23)cc1,-3.1%
C[C@]1(C2CCCC2)Cc2cc(OCC(=O)O)c(Cl)c(Cl)c2C1=O,3.1%
COc1ccccc1NC(=O)C1=C(C)NC(Nc2nc3ccccc3o2)=NC1c1ccccc1Br (centres undefined),i
Cc1nc2cccnc2n1-c1cccc(C(=O)N2CCN(c3ccc(Cl)cc3)CC2)c1,-2.2%
CCC(=C(CC)c1ccc(OP(=O)(O)O)cc1)c1ccc(OP(=O)(O)O)cc1,3.4%[0.199 µM]
COC(=O)c1ccc2nc(NC3=NC(c4[nH]ncc4Cl)C4=C(CCCC4=O)N3)oc2c1 (centres undefined),i
O=C1CCCC2=C1C(c1ccncc1Br)N=C(Nc1nc3ccccc3o1)N2 (centres undefined),132.9%&2.2%[activator]
OC[C@H](Cc1ccccc1)Nc1nc(Oc2ccc3c(c2)CCC3)nc2c1ncn2Cc1ccc(-c2ccccc2)cc1,22.0%
O=S(=O)(NC1CCN(S(=O)(=O)c2ccc3c(c2)OCCO3)CC1)c1c(F)cccc1F,-3.2%
Cc1ccn(CC(=O)N2CCCn3ccnc3C2c2cnn(C)c2)n1 (centres undefined),-15.9%
O=C(Nc1ccc(Br)cc1)c1ccc(Br)c(S(=O)(=O)NCc2ccccc2)c1,24.4%
Clc1ccc(C(Cn2ccnc2)OCc2c(Cl)cccc2Cl)c(Cl)c1 (centres undefined),389.0%&79.7%[activator]
O=C(NCc1c(F)cc(F)cc1F)c1cn2c(c(O)c1=O)C(=O)N1[C@H]3CC[C@H](C3)O[C@@H]1C2,55.0%[activator]
Cc1c(P(=S)(c2ccccc2)c2ccccc2)c2ccccc2n1C(=O)NCc1ccc(F)cc1,-4.3%
CN1C[C@@H](NS(=O)(=O)c2ccc(C#N)cc2)C[C@H]1c1nc(-c2ccc(Cl)cc2)no1,3.0%
Cc1oc(-c2ccccc2)nc1CCOc1ccc(CC2C(=O)NOC2=O)cc1 (centres undefined),-18.5%
Cc1cc(N[S+](=O)([O-])c2ccc(NC(=O)Cc3ccc(Cl)nc3)cc2)no1,-7.4%
O=C(c1nc2c(o1)CCN(Cc1cccc(F)c1)CC2)N1CCOCC1,2.82µM*
CC(C)c1cccc(C(C)C)c1O,-4.7%
Cn1nc(C(=O)N2CCCC(CN3CCOCC3)CC2)c2ccccc21 (centres undefined),-9.2%
CN(C)c1ccnc2sc3c(=O)n(N4CCCCCC4)cnc3c12,-7.4%
Cc1cccc2c3c(ccc12)C1=C(C(=O)C3=O)[C@@H](C)CO1,?

Copied from the results shown, three compounds:
Molecule,nsP2pro inh
Cc1ccc(NS(=O)(=O)c2cc3c(cc2Cl)NC(=O)CO3)cc1Cl,-3.7%
CC(C)n1cc(CN2C[C@@H]3C(=O)N(Cc4ccc5c(c4)OCO5)C(=O)[C@@H]3C2)c2ccccc21,i
Cc1c(CNC(C)CCc2ccccc2)c(C(=O)O)c(C)n1Cc1ccc(F)cc1 (centres undefined),-12.4%

Carrying on:
Molecule,nsP2pro inh
CC(C)CN1C(=O)N(Cc2ccccn2)C(=O)C12CCN(Cc1ccc3c(c1)CCO3)CC2,i
CC(C)(C)c1ccc(C(=O)NC2(C(F)(F)F)NC(=O)N(CCc3ccccc3)C2=O)cc1 (centres undefined),-21.3%
CCC(Oc1ccccc1)C(=O)Nc1nnc(S(=O)(=O)Nc2ccccc2)s1 (centres undefined),-13.2%
CC(C)=CCC[C@](C)(O)[C@H]1CC[C@@]2(C)[C@H]1[C@@H](O)CC1[C@@]3(C)CC[C@@H](O[C@@H]4O[C@H](CO)[C@@H](O)[C@H](O)[C@H]4O)C(C)(C)C3CC[C@]12C (some centres undefined),18.1%
COc1cc(O)c2c(c1)C1OC1C[C@H](O)[C@H](O)C(=O)/C=C\C[C@H](C)OC2=O (some centres undefined),-15.8%
COc1cc(SC)ccc1C(=O)N[C@H]1CCN2C(=O)N(c3cccc(C(F)(F)F)c3)C(=O)[C@@H]2C1,3.6%

Bioassay records as filed in PubChem BioAssay.
